D2 potentiator = Beta-Arrestin HTS for Positive Allosteric Modulators of the Human D2 Dopamine Receptor: Potentiators; D(2) dopamine receptor (Homo sapiens), P14416; DiscoveRx D2 beta-arrestin cells, luminescence, 90 min; 100% = 57 uM dopamine signal; potentiation, % (no concentration beside the values); 360,000 tested, 0.23% active; AID 624464, 2012; active = potentiation of 50% or more; inconclusive = 30% to 50%; inactive = 30% or less;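 note: compound concentration not given in the record; tested on top of an EC20 dose of dopamine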
Target sequence (P14416 whole entry, looked up): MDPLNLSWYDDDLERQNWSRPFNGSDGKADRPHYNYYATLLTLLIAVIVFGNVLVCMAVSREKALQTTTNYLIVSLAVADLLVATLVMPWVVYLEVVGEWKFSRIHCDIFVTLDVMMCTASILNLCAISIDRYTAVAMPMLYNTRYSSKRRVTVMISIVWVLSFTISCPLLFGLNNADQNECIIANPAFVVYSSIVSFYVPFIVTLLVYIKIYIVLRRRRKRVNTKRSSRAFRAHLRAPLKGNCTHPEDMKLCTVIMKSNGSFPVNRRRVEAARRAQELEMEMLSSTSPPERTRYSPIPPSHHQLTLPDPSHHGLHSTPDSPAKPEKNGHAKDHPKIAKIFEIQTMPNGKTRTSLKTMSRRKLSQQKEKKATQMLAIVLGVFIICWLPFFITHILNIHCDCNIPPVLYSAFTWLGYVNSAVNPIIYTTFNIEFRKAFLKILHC
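D2 cells co-treated with compound plus 50 nM dopamine (EC20) for 90 min at 37 deg C to detect potentiation. Beta-arrestin recruitment was read as enzyme-fragment luminescence after 1 h at ambient temperature. Full response was set by 57 uM dopamine.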
TRPML1 agonist = qHTS for Agonists of the Human Mucolipin Transient Receptor Potential 1 (TRPML1) | TRPML1-expressing cells, Ca2+ dye fluorescence, FDSS; host cell line not named in the record; reference of the full effect not given here | activation, % (no concentration beside the values) | 410,000 tested, 0.12% active; in the data active = activation above about 50%; inconclusive = about 30% to 50%; inactive = below about 30%; note: 0% is about no effect; the text of the record puts the active cut at 80%
Target sequence (Q9GZU1 whole entry, looked up): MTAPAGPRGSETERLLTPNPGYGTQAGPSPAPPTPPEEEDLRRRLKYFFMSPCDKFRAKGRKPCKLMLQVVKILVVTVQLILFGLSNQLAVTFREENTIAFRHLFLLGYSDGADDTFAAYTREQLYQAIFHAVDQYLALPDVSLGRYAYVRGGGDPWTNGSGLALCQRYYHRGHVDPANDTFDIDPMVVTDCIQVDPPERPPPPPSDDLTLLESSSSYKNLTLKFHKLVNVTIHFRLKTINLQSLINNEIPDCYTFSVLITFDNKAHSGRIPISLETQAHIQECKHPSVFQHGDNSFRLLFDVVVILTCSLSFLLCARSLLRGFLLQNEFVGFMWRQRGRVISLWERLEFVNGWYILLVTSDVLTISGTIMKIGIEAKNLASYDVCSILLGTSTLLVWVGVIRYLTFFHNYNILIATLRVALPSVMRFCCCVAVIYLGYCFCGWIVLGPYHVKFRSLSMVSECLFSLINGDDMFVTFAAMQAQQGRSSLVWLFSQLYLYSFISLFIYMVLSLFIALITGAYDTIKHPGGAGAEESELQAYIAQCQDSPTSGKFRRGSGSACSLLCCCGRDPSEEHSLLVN
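Tetracycline-induced TRPML1-DL cells are seeded and incubated overnight before loading with a no-wash Ca2+ dye and quencher. Agonist activity is taken from the 110 s fluorescence read following compound pin-transfer on an FDSS, before EC80 54-4 challenge.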
PINK1 modulator = A Quantitative High throughput Screen to Identify Chemical Modulators of PINK1 Expression | PINK1 immunofluorescence, high-content cytometry, 24 h | Potency, µM (titrated, usually from 76.6 µM), for inactives: at the highest dose activation (PINK1 increase), most hits filed as activators | 410,000 tested, 0.2% active; active = well fitted activation curve with a large enough effect; inconclusive = small, poorly fitted or top-dose-only effect; inactive = flat fitted curve, though single readings scatter; cell line not stated here;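 note: potency is the fitted concentration of half-maximal effect; % of control where 0% means no effect; nearly all actives have a fitted effect of over 65% in size; a mitochondrial uncoupler was the plate control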
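Stable cell line, 250 cells/well, 12 h attachment; compounds pinned at 5 concentrations, 24 h; CCCP control. Fixed with nuclear dye, primary antibodies 12 h at 10 degrees C, secondary plus cell stain; laser-scanning cytometer read.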
D2 ag = Beta-Arrestin HTS for Positive Allosteric Modulators of the Human D2 Dopamine Receptor: Agonists. activation, % (concentration not given with the values). D(2) dopamine receptor (Homo sapiens), P14416. DiscoveRx PathHunter D2 beta-arrestin, luminescence, 90 min; 100% = 57 uM dopamine signal. 360,000 tested, 0.084% active. AID 624465, 2012; in the data active = activation above about 40%; inconclusive = about 15% to 40%; inactive = below about 15%; note: compound concentration not given in the record; the text of the record calls up to 30% inactive
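DiscoveRx PathHunter D2 beta-arrestin cells (2,100/well) attached overnight, then compound-stimulated 90 min at 37 C in HBSS/10 mM HEPES/0.1% Tween-20 buffer; beta-galactosidase complementation read by luminescence after 1 h at ambient temperature. Dopamine 57 uM final (EC100) as control.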
Six1-Eya2 blk = qHTS Assay for Inhibitors of the Six1/Eya2 Interaction; Homeobox protein SIX1 (Homo sapiens) + Protein phosphatase EYA2 (Homo sapiens), …; AlphaScreen GST-Six1/His-Eya2 binding, biochemical; stronger effect = lower value; control for the full effect not named in the record; activity change, % (test concentration not listed); 360,000 tested, 0.56% active; AID 651725, 2012; in the data active = activity change below about -65%; inconclusive = about -30% to -65%; inactive = above about -30%; note: % is set by controls: 0 for no effect and ±100 for the full control effect; compound concentration not given in the record
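Homogeneous AlphaScreen proximity assay pairing GST-Six1 with His-tagged Eya2 (added as 5X mix: 250 nM and 500 nM) in 50 mM Tris pH 8.0, 300 mM NaCl, 1 mM TCEP. Glutathione donor and nickel acceptor beads; 1 h, 37 °C, dark.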
TRPML1 blocker = qHTS for Inhibitors of the Human Mucolipin Transient Receptor Potential 1 (TRPML1); Mucolipin-1 (Homo sapiens), Q9GZU1; AID 624415, 2012; TRPML1-inducible cells, Ca2+ dye fluorescence, FDSS; stronger effect = lower value; inhibition of EC80 agonist-evoked calcium signal; 390,000 tested, 0.02% active; activity change, negative = inhibition, % (test concentration not listed); in the data active means activity change below about -50%; inconclusive means about -30% to -50%; inactive means above about -30%;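 note: stimulus is agonist 54-4 at its EC80 concentration; % is set by controls: 0 for no effect and ±100 for the full control effect; compound concentration not given in the record; the text of the record puts the active cut at -80%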
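Calcium fluorescence in TRPML1-DL cells induced overnight with Tet: a 110 s read after compound pin addition, then a 110 s antagonist read after challenge with 54-4 at 4 uM final (EC80).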
Active calls of the source: *; ? = inconclusive; . = no result given; & = joins results of further samples; [ ] = another dose, or the depositor's remark.

Value order – D2 potentiator	TRPML1 agonist	PINK1 modulator	D2 ag	Six1-Eya2 blk	TRPML1 blocker
CCS(=O)(=O)N1Cc2ccccc2CC1C(=O)Nc1cc(S(C)(=O)=O)ccc1Cl (configuration not stated)
→ -3	0.0	-1.6%	-2.6	-2	-1
CN(C)c1ccc(Nc2ncnc3c2c(-c2ccccc2)cn3-c2cccc(Cl)c2)cc1
→ .	0.5	-0.4%	.	.	69
COC(=O)[C@@]12CCCN1[C@H](c1ccc(-c3ccc(C(C)=O)cc3)c(OC)c1)[C@H]1C(=O)N(C)C(=O)[C@H]12
→ -4	-0.6	-1.1%	-0.8	-13	-5
CCN(CC)CCNC(=O)c1cn(CC)c2cc(N3CCN(C(=O)c4ccco4)CC3)c(F)cc2c1=O
→ -19	-0.7	-1.1%	-6.7	0	23
Cc1ccc(S(=O)(=O)NC2(C(F)(F)F)NC(=O)N(CCc3ccccc3)C2=O)cc1 (configuration not stated)
→ -6	-1.1&-0.4	-0.9%&0.6%	-5.1	1	14&17
Clc1ccccc1-c1ccc(/C=N/n2cnnc2)o1
→ -18	0.8	-2.4%	-0.3	-1	1
O=C(NCCN1CCOCC1)c1ccc(Cl)c(S(=O)(=O)N2CCCCCC2)c1
→ -5	-0.1	0.2%	-2.6	-4	58
O=[N+]([O-])c1ccc(N2CCNCC2)cc1NCc1cccnc1
→ -9	-0.8	1.3%	-1.7	-1	-1
COc1cc(Cl)c(C)cc1NC(=O)c1ccccc1NC(=O)CN1CCN(c2ccccn2)CC1
→ 7	-0.3	-2.0%	0.2	2	-2
CN(C)CCCN(C(=O)c1ccc(S(=O)(=O)N2CCCCCC2)cc1)c1nc2ccc(F)cc2s1
→ -41	1.5	0.0%	-4.6	-19	5
Cc1ccc(NC(=O)CC(C)S(=O)(=O)c2ccc3c(c2)NC(=O)CO3)cc1C (configuration not stated)
→ 16	0.9&3.2	0.4%&1.9%	-1.3	14	-5&-2
Fc1ccccc1C1c2[nH]c3ccccc3c2CCN1Cc1cccn1-c1ncccn1 (configuration not stated)
→ -2	1.0	1.1%	-0.2	-20	24
CC(C)CN(C(=O)COc1ccc(-c2nnco2)cc1)C1CCS(=O)(=O)C1 (configuration not stated)
→ -13	-0.2	-1.5%	-3.1	2	13
COc1ccccc1N1CCN(C(=O)c2cnn(-c3ccc(F)cc3F)c2C2CCNCC2)CC1
→ .	-0.1	-3.5%	.	.	3
CC(=O)Nc1c(Cl)c2c(c(Cl)c1Br)-c1ccc(Cl)cc1C2
→ -1	-0.4	12%	0.6	2	-1

Entries of single compounds, looked up by structure. Order of values: D2 potentiator, TRPML1 agonist, PINK1 modulator, D2 ag, Six1-Eya2 blk, TRPML1 blocker
Shown for CC(=O)Nc1c(Cl)c2c(c(Cl)c1Br)-c1ccc(Cl)cc1C2 : -1, -0.4, 12%, 0.6, 2, -1
Shown for CC(C)CN(C(=O)COc1ccc(-c2nnco2)cc1)C1CCS(=O)(=O)C1 (configuration not stated) : -13, -0.2, -1.5%, -3.1, 2, 13

(more compounds)
Value order – D2 potentiator	TRPML1 agonist	PINK1 modulator	D2 ag	Six1-Eya2 blk	TRPML1 blocker
COC1C(C)=C(C)C(=O)N1Cc1ccc(F)cc1 (configuration not stated)
→ -1	0.3	0.4%	-3.8	30	-7
CCn1c(C(O)c2ccc3c(c2)OCO3)nc2ccccc21 (configuration not stated)
→ -19	-0.7	-1.0%	-1.6	-2	21
CNC(=S)NCCc1c[nH]c2ccc(OC)cc12
→ -15	-0.8	-1.2%	-2.9	1	-2
COC(=O)[C@@H]1CCCN1C(=O)CCc1nnc(CCc2c[nH]c3ccccc23)o1
→ -10	-0.4	0.0%	-1.8	-4	-13
NNC(=O)c1cc2nc(-c3cccs3)cc(C(F)(F)F)n2n1
→ -6	0.8	2.3%	2.8	-22	67
Cc1cc(C(=O)N2CCN(S(=O)(=O)c3ccc(F)c(Cl)c3)CC2)c(C)o1
→ -2	0.4	-0.3%	1.0	-3	-10
COc1ccc(/C=C/C(=O)Nc2ccccc2F)cc1S(=O)(=O)N1CCOCC1
→ -13	0.2	0.8%	-0.9	-1	-12
Cc1ccc(-c2csc3nc(SCC(=O)Nc4ccc(Cl)c(C(=O)O)c4)[nH]c(=O)c23)cc1
→ -7	0.8	0.9%	-2.0	-70*	-12
Cc1csc(NC(=O)CSc2nnc(-c3cccs3)n2C)n1
→ -13	1.5	4.0%[38.3 µM]	-2.3	-3	-26
CCOc1ccc(OCC(=O)OC(C)C(=O)NC2CCCCC2C)cc1 (configuration not stated)
→ -13	7.0	2.0%	-2.4	4	26
O=C(NC1CC2CCCC(C1)N2S(=O)(=O)c1ccccc1)c1ccco1 (configuration not stated)
→ -9	-0.3	23%[38.3 µM]	1.4	5	-13
Fc1ccccc1/C=N/Nc1ncnc2nc[nH]c12
→ 7	-0.8	0.6%	-4.9	-26	7
O=C(NCCC1=CCCCC1)c1ccc2c(=O)n3c(nc2c1)CCCCC3
→ -4	-0.6	3.1%	0.4	-9	8
COc1ccc(NC(=O)Cn2c(=O)n(Cc3ccc(C(=O)NCc4ccccc4Cl)cc3)c(=O)c3ccccc32)cc1
→ .	-0.5	1.6%	.	.	-1
O=C(COC(=O)C1CCC(=O)N1)Nc1cccc([N+](=O)[O-])c1 (configuration not stated)
→ -9	0.2	0.8%	-1.2	8	-5

Fetched one by one from above:
Value order – D2 potentiator	TRPML1 agonist	PINK1 modulator	D2 ag	Six1-Eya2 blk	TRPML1 blocker
COc1ccc(/C=C/C(=O)Nc2ccccc2F)cc1S(=O)(=O)N1CCOCC1
→ -13	0.2	0.8%	-0.9	-1	-12
O=C(NCCN1CCOCC1)c1ccc(Cl)c(S(=O)(=O)N2CCCCCC2)c1
→ -5	-0.1	0.2%	-2.6	-4	58

Later entries
Value order – D2 potentiator	TRPML1 agonist	PINK1 modulator	D2 ag	Six1-Eya2 blk	TRPML1 blocker
CC(C)C[C@H]1CNC(=S)N1C[C@H]1CCCN1C[C@H](Cc1ccc(O)cc1)N1C[C@H](Cc2ccc(O)cc2)N(CCc2ccccc2)C1=S
→ -13	-0.3	-0.9%	-3.1	-10	-16
COCCCN(C(=O)CSCC(=O)Nc1cccc(C)c1)c1c(N)n(Cc2ccccc2)c(=O)[nH]c1=O
→ -9	0.0	-0.5%	0.1	2	1
C/C(=N\O)C(C)Oc1ccc(Cl)cc1 (configuration not stated)
→ -1	1.8	1.8%	-4.3	13	0
Cc1nc2nc(CNC(=O)c3cccc(F)c3)nn2c(C)c1CCC(=O)Nc1ccc(F)cc1
→ .	1.8	0.5%	.	.	-8
CCCCn1nc(C(=O)NC2CCCCC2)c2ccccc2c1=O
→ -17	-0.3	4.8%	-0.3	5	11
O=C(c1cc(C2CC2)nn1-c1ccccc1)N1CCN(Cc2ccccc2F)CC1
→ -28	0.5	-5.8%	-3.3	-6	-3
CCOc1ccccc1NC(=O)c1ccc2c(c1)C(=O)N(CC)C2=O
→ -2	0.4	3.8%	2.9	21	5
COC(=O)CSc1nc2ccccc2n1CC(=O)N(C(C)C)C(C)C
→ 2	1.8	-0.9%[38.3 µM]	-3.1	3	10
N=c1c2c(n(Cc3ccc(Br)cc3)c3c1CCC3)CCCC2
→ -8	1.3	35µM*	-7.5	1	5
CC(=O)N(Cc1ccccc1)c1c(N)nc(N)[nH]c1=O
→ -4	0.4	1.5%	-1.0	5	-11
Cc1c(C(=O)NCc2ccccc2)sc2nc[nH]c(=O)c12
→ .	-0.1	0.1%	.	.	1
CCOc1ccc(NC(=O)CN2CCN(CC(=O)Nc3ccc(Cl)c(C(F)(F)F)c3)CC2)cc1
→ -4	0.1	5.9%[38.3 µM]	2.1	-20	0
CCOC(=O)CC(NC(=O)c1cc2c(=O)n3cccc(C)c3nc2s1)c1ccc(OCC(C)C)c(OC)c1 (configuration not stated)
→ .	0.2	0.1%	.	.	-11
Cc1cc(NC(=O)CSc2nc3c(c(=O)n2-c2ccc(Br)cc2)SCC3)no1
→ 14	1.1	.	0.3	0	-3
CCOCCCNS(=O)(=O)c1ccc(OC)c(Cl)c1Cl
→ 14	-0.4	0.6%	-0.7	1	2

Six1-Eya2 blk: entries above that show a hit
SMILES	D2 potentiator	PINK1 modulator	D2 ag	Six1-Eya2 blk	TRPML1 blocker
Cc1ccc(-c2csc3nc(SCC(=O)Nc4ccc(Cl)c(C(=O)O)c4)[nH]c(=O)c23)cc1	-7	0.9%	-2.0	-70*	-12

Additional records.
compound	D2 potentiator	TRPML1 agonist	PINK1 modulator	D2 ag	Six1-Eya2 blk	TRPML1 blocker
N#CC1=C(N)Oc2n[nH]c(-c3ccccn3)c2C1c1c(F)cccc1Cl (configuration not stated)	-10	2.1	0.4%	-6.8	4	10
Cc1ccc2oc(-c3ccc(C)c(NC(=O)c4ccc(N5CCC(C)CC5)c([N+](=O)[O-])c4)c3)nc2c1	.	-0.4	-1.9%	.	.	-8
COc1ccc(NC(=S)N2CCC(NC(=O)c3cccc(C)c3)CC2)cc1	-5	-1.4	0.3%	0.0	-13	-11
COc1ccccc1N1CC(O)=C(c2nc3ccccc3s2)C1=N	-7	3.9	12%[38.3 µM]	-1.6	-4	2
O=C(OCc1cc(=O)n2ccsc2n1)c1ccccc1NCCO	-2	-0.4	0.8%	-1.2	-10	7
COc1ccc(NC(=O)C2CCCCN2CC(=O)OCc2ccccc2)cc1OC (configuration not stated)	6	2.3	-0.7%	-1.2	8	6
O=C(Nc1nccs1)C1CC(=O)N(c2ccccc2)C1 (configuration not stated)	2	0.7	-1.4%	3.0	-2	-20
COCCNS(=O)(=O)c1ccc(F)c(OC)c1	-7	-0.6	-1.2%[38.3 µM]	0.2	4	-2
CC(C)(C)C(=O)NC(NC(=S)Nc1sc2c(c1C#N)CCCC2)C(Cl)(Cl)Cl (configuration not stated)	-40	0.5	?	-10	-5	17
O=C(c1cc(-c2cccc(Cl)c2)on1)N1CCCCC1	.	-1.3	0.9%	.	.	10
O=C(NCc1ccco1)C1CCCN1C(=O)Nc1ccc(Br)cc1 (configuration not stated)	-3	-0.8	-0.7%	-1.8	-6	6
COc1cc(NS(=O)(=O)c2ccc3[nH]c4c(c3c2)CCCCCC4)cc(OC)c1	.	0.4	?	.	.	26
COc1ccc(CN(C)C(=O)C(Cc2ccccc2)NC(=O)c2ccccc2)cc1F (configuration not stated)	18	0.4	-2.2%	2.1	-2	8
CCSc1nnc(NC(=O)c2ccc(C)cc2)s1	7	0.1	.	0.9	-2	2

Assay outcomes: PubChem BioAssay, National Center for Advancing Translational Sciences (NCATS)
